From PubChem BioAssay
Six1-Eya2 inh = inhibitors of human Six1/Eya2 interaction. Q15475+O00167. AlphaScreen GST-Six1/His-Eya2 binding, biochemical; stronger effect = lower value; control for the full effect not named in the record. activity change, % (no concentration beside the values). 360,000 compounds, 0.56% hits. AID 651725; in the data active = activity change below about -65%; inconclusive = about -30% to -65%; inactive = above about -30%; note: % is set by controls: 0 for no effect and ±100 for the full control effect
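Compounds are tested against tagged Six1 and Eya2 proteins bridged by glutathione donor and nickel acceptor beads; after a one-hour incubation at 37 °C without light, AlphaScreen emission is recorded.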
CtBP-E1A blk = inhibitors of CtBP/E1A interaction | AlphaScreen GST-E1A/His-CtBP binding, 1536-well; stronger effect = lower value; control for the full effect not named in the record | 340,000 compounds, 0.49% hits | AID 651724 | activity change, % (test concentration not listed); in the data active means activity change below about -65%; inconclusive means about -30% to -65%; inactive means above about -30%; note: % is set by controls: 0 for no effect and ±100 for the full control effect
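GST-E1A and His-tagged CtBP (125 nM each as 5X stock) were preincubated with pin-transferred compound for 2 h at 37 °C in the dark, then glutathione donor and nickel acceptor beads were added for 1 h before AlphaScreen reading.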
D2 PAM = potentiates the human D2 dopamine receptor allosterically; P14416; DiscoveRx D2 beta-arrestin cells, luminescence, 90 min; 100% = 57 uM dopamine signal; potentiation, % (concentration not given with the values); 360,000 compounds, 0.23% hits; active = potentiation of 50% or more; inconclusive = 30% to 50%; inactive = 30% or less;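 note: tested on top of an EC20 dose of dopamine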
Target sequence (P14416 whole entry, looked up): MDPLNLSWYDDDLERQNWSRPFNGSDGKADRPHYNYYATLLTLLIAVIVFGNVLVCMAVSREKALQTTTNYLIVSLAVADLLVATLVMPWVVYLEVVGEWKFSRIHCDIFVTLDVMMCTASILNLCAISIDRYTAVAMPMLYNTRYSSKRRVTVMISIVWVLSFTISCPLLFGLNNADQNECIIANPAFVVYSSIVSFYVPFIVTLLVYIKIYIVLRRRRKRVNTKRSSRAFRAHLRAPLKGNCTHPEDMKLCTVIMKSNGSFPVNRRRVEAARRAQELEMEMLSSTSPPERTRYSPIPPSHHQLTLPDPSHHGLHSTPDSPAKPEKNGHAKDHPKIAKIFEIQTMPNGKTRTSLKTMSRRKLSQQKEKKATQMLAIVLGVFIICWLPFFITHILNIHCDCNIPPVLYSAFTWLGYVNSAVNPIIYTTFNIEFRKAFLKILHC
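PathHunter beta-arrestin assay in DiscoveRx D2 cells. Compounds were added with an EC20 of dopamine (50 nM final) for 90 min at 37 deg C. Luminescence was read 1 h after detection reagent, with 57 uM dopamine as the EC100 control.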
TRPML1 blocker = human mucolipin-1 channel inhibition | AID 624415 | Q9GZU1 | TRPML1-inducible cells, Ca2+ dye fluorescence, FDSS; stronger effect = lower value; inhibition of EC80 agonist-evoked calcium signal | activity change, negative = inhibition, % (test concentration not listed) | 390,000 compounds, 0.02% hits; in the data active means activity change below about -50%; inconclusive means about -30% to -50%; inactive means above about -30%;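 note: stimulus is agonist 54-4 at its EC80 concentration; % is set by controls: 0 for no effect and ±100 for the full control effect; compound concentration not given in the record; the text of the record puts the active cut at -80%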
Target sequence (Q9GZU1 whole entry, looked up): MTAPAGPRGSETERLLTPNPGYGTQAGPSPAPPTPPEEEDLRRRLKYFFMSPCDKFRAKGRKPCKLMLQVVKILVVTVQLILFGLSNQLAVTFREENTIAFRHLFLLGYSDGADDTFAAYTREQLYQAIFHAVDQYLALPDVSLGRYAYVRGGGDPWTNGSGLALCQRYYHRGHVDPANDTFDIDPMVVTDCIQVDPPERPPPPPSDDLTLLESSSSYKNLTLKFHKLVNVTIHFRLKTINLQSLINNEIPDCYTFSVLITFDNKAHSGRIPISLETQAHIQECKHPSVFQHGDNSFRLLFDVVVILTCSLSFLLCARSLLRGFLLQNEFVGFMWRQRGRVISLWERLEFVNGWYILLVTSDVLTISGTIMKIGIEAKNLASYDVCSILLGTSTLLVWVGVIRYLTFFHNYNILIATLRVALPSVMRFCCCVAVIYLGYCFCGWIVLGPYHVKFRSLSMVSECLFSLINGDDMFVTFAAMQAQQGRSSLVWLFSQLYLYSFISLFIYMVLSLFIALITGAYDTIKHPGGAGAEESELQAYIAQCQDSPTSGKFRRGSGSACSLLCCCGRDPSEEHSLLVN
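Calcium fluorescence in TRPML1-DL cells induced overnight with Tet: a 110 s read after compound pin addition, then a 110 s antagonist read after challenge with 54-4 at 4 uM final (EC80).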
TRPV1 PAM = potentiators of human vanilloid receptor 1 (TRPV1) | Q8NER1 | TRPV1-expressing cells, Fluo-8 calcium influx, capsaicin EC20 potentiation; host cell line not named in the record; control for the full effect not named in the record | potentiation, % at 8.33 µM | 320,000 compounds, 0.02% hits; active means potentiation above 80%; inconclusive means 30% to 80%; inactive means below 30%; note: 0% is about no effect
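Fluo-8 calcium influx in TRPV1-expressing cells, kinetic read (ex 480/em 520 nm). Compound added and read 3 min for agonist activity, followed by capsaicin at EC20 final and 2 min further read for enhancement.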
TRPML1 ag = human mucolipin-1 channel agonism | Q9GZU1 | TRPML1-expressing cells, Ca2+ dye fluorescence, FDSS; host cell line not named in the record; reference of the full effect not given here | activation, % (concentration not given with the values) | 410,000 compounds, 0.12% hits; in the data active = activation above about 50%; inconclusive = about 30% to 50%; inactive = below about 30%; note: 0% is about no effect; the text of the record puts the active cut at 80%
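TRPML1-DL cells, Tet-induced overnight (~16 h, 37 degrees C), loaded 45-90 min at room temperature with Ca8 no-wash calcium dye plus quencher. FDSS fluorescence: 10 s baseline, compound pin-transfer, 110 s agonist read, then EC80 54-4 (4uM final) and 110 s antagonist read.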
* hit, by the source's call.

Cc1c(-c2ccccc2Cl)nc2ccccc2c1C(=O)O was read as Six1-Eya2 inh 0, D2 PAM -11, TRPML1 blocker -3, TRPV1 PAM -3 and TRPML1 ag -0.2.
O=C(NC1CCCC1)c1ccccc1-c1nc2ccccc2[nH]1 was read as Six1-Eya2 inh 6, CtBP-E1A blk -2, D2 PAM 17, TRPML1 blocker -6, TRPV1 PAM -15 and TRPML1 ag 0.0.
`O=C(c1ccccc1)N1CCN(S(=O)(=O)c2ccc(Cl)c(C(F)(F)F)c2)CC1` gave Six1-Eya2 inh 4, CtBP-E1A blk 10, D2 PAM 1, TRPML1 blocker 13, TRPV1 PAM 17 and TRPML1 ag 0.5.
`NC(=O)C1CCN(C(=O)/C=C/c2ccco2)CC1` gave Six1-Eya2 inh 6, CtBP-E1A blk 0, D2 PAM -18, TRPML1 blocker -6, TRPV1 PAM -9 and TRPML1 ag -0.5.
Screening CC(=O)Nc1ccc(NC(=O)COC(=O)c2ccccc2C(=O)c2ccccc2)cc1 returned Six1-Eya2 inh -18, CtBP-E1A blk -10, D2 PAM -1, TRPML1 blocker -6, TRPV1 PAM -17 and TRPML1 ag 0.6.
`CN(CC(=O)Nc1cccc(F)c1)C(=O)C1CCN(S(=O)(=O)c2ccc3c(c2)OCCO3)CC1` gave Six1-Eya2 inh -1, CtBP-E1A blk 12, D2 PAM 1, TRPML1 blocker 4, TRPV1 PAM -4 and TRPML1 ag 0.3.
For COc1ccc(NS(=O)(=O)c2ccc(OCC(=O)N3CCCC3)cc2)cc1 the results were Six1-Eya2 inh 2, CtBP-E1A blk 2, D2 PAM -3, TRPML1 blocker -11, TRPV1 PAM -1 and TRPML1 ag 1.9.
`N#CCOC(=O)C1CCN(S(=O)(=O)c2ccc3c(c2)OCCO3)CC1` gave Six1-Eya2 inh 1, CtBP-E1A blk 4, D2 PAM 1, TRPML1 blocker 5, TRPV1 PAM -4 and TRPML1 ag 0.2.
Screening CN(CC(=O)NCc1ccccc1Cl)S(=O)(=O)c1cccs1 returned Six1-Eya2 inh 0, CtBP-E1A blk 3, D2 PAM 0, TRPML1 blocker 8, TRPV1 PAM -5 and TRPML1 ag 0.8.
Cc1cc(C)cc(N2Cc3ccccc3C2)c1 was read as Six1-Eya2 inh 5, CtBP-E1A blk 3, D2 PAM -3, TRPML1 blocker 1, TRPV1 PAM -12 and TRPML1 ag -0.2.
`CN(C(=O)COC(=O)c1cc(-c2ccco2)nc2ccccc12)C1CCS(=O)(=O)C1` (stereo not drawn) gave Six1-Eya2 inh -18, CtBP-E1A blk -16, D2 PAM -4 and TRPV1 PAM -6.
N/C(=N\OC(=O)Cc1ccc(-c2ccccc2)cc1)c1cccc([N+](=O)[O-])c1 was read as Six1-Eya2 inh -16, CtBP-E1A blk -15, D2 PAM 9, TRPML1 blocker 9, TRPV1 PAM 8 and TRPML1 ag 3.6.

Quoted from the listing for reference:
Cc1c(-c2ccccc2Cl)nc2ccccc2c1C(=O)O was read as Six1-Eya2 inh 0, D2 PAM -11, TRPML1 blocker -3, TRPV1 PAM -3 and TRPML1 ag -0.2.
O=C(NC1CCCC1)c1ccccc1-c1nc2ccccc2[nH]1 was read as Six1-Eya2 inh 6, CtBP-E1A blk -2, D2 PAM 17, TRPML1 blocker -6, TRPV1 PAM -15 and TRPML1 ag 0.0.
`O=C(c1ccccc1)N1CCN(S(=O)(=O)c2ccc(Cl)c(C(F)(F)F)c2)CC1` gave Six1-Eya2 inh 4, CtBP-E1A blk 10, D2 PAM 1, TRPML1 blocker 13, TRPV1 PAM 17 and TRPML1 ag 0.5.
`NC(=O)C1CCN(C(=O)/C=C/c2ccco2)CC1` gave Six1-Eya2 inh 6, CtBP-E1A blk 0, D2 PAM -18, TRPML1 blocker -6, TRPV1 PAM -9 and TRPML1 ag -0.5.
Screening CC(=O)Nc1ccc(NC(=O)COC(=O)c2ccccc2C(=O)c2ccccc2)cc1 returned Six1-Eya2 inh -18, CtBP-E1A blk -10, D2 PAM -1, TRPML1 blocker -6, TRPV1 PAM -17 and TRPML1 ag 0.6.
`CN(CC(=O)Nc1cccc(F)c1)C(=O)C1CCN(S(=O)(=O)c2ccc3c(c2)OCCO3)CC1` gave Six1-Eya2 inh -1, CtBP-E1A blk 12, D2 PAM 1, TRPML1 blocker 4, TRPV1 PAM -4 and TRPML1 ag 0.3.
For COc1ccc(NS(=O)(=O)c2ccc(OCC(=O)N3CCCC3)cc2)cc1 the results were Six1-Eya2 inh 2, CtBP-E1A blk 2, D2 PAM -3, TRPML1 blocker -11, TRPV1 PAM -1 and TRPML1 ag 1.9.
`N#CCOC(=O)C1CCN(S(=O)(=O)c2ccc3c(c2)OCCO3)CC1` gave Six1-Eya2 inh 1, CtBP-E1A blk 4, D2 PAM 1, TRPML1 blocker 5, TRPV1 PAM -4 and TRPML1 ag 0.2.

Next section.
For O=C(O)c1c(-c2ccccc2)oc2ccc(O)cc12 the results were Six1-Eya2 inh -7, D2 PAM -1, TRPML1 blocker 30, TRPV1 PAM inconclusive and TRPML1 ag 0.5.
Cc1nc2ccccc2n1C(=O)c1ccccc1[N+](=O)[O-] was read as Six1-Eya2 inh 0, CtBP-E1A blk 4, D2 PAM -6, TRPML1 blocker 24, TRPV1 PAM 0 and TRPML1 ag -1.0.
For CC(C)(C)NS(=O)(=O)CC12CCC(CC1=O)C2(C)C (stereo not drawn) the results were Six1-Eya2 inh 6, CtBP-E1A blk -3, D2 PAM 15, TRPML1 blocker 0, TRPV1 PAM -17 and TRPML1 ag 3.3.
`O=C(Cn1nnnc1CN1CCOCC1)N1CCC(c2cccc(Cl)c2)C1` (stereo not drawn) gave Six1-Eya2 inh 2, CtBP-E1A blk -5, D2 PAM -4, TRPML1 blocker -5, TRPV1 PAM 4 and TRPML1 ag -0.3.
CNC(=S)Nc1ccc(OC)c(OC)c1 was read as Six1-Eya2 inh 9, CtBP-E1A blk 6, D2 PAM -25, TRPML1 blocker 26, TRPV1 PAM -2 and TRPML1 ag -0.1.
For CCCCC1=NN(C(=O)c2cocc2C)C(O)(C(F)(F)F)C1 (stereo not drawn) the results were Six1-Eya2 inh 0, CtBP-E1A blk 7, D2 PAM 3, TRPML1 blocker 33, TRPV1 PAM -1 and TRPML1 ag 5.7.
Screening COCCCNC(=O)CNC(=O)c1cn(-c2ccccc2OC)c(=O)c2ccccc12 returned Six1-Eya2 inh 2, CtBP-E1A blk -2, D2 PAM -6, TRPML1 blocker 4, TRPV1 PAM 1 and TRPML1 ag -0.5.
`C[C@@H]1CN([C@@H](C)CO)C(=O)CCCn2nncc2CO[C@H]1CN(C)C(=O)OCc1ccccc1` gave Six1-Eya2 inh 1, CtBP-E1A blk 5, D2 PAM -2, TRPML1 blocker -5 and TRPML1 ag -0.3.
For S=C(NCCN1CCOCC1)N/N=C/c1ccccc1 the results were Six1-Eya2 inh 10, CtBP-E1A blk 3, D2 PAM -7, TRPML1 blocker -2, TRPV1 PAM -4 and TRPML1 ag 0.4.
c1ccc2c(c1)[nH]c1c(N3CCCC3)ncnc12 was read as Six1-Eya2 inh -13, CtBP-E1A blk -14, D2 PAM -14, TRPML1 blocker 25, TRPV1 PAM -1 and TRPML1 ag 2.6.
CN(C)c1ccc(/C=N/NC(=O)CN2CCCCC2)cc1Br was read as Six1-Eya2 inh 7, CtBP-E1A blk 0, D2 PAM -2, TRPML1 blocker 1, TRPV1 PAM 16 and TRPML1 ag 0.0.
`CN1CCN(c2ccc(-c3cccc(NC(=O)COc4ccc(Cl)cc4Cl)c3)nn2)CC1` gave Six1-Eya2 inh -5, CtBP-E1A blk 2, D2 PAM -1, TRPML1 blocker -5, TRPV1 PAM 9 and TRPML1 ag -0.9.
`COc1ccc(S(=O)(=O)n2nc(C)cc2C)c(C)c1C` gave Six1-Eya2 inh 0, CtBP-E1A blk 14, D2 PAM -14, TRPML1 blocker -3, TRPV1 PAM 17 and TRPML1 ag 0.4.
`CCCCS(=O)(=O)N1CCCC(C(=O)Nc2ccc(Cl)cn2)C1` (stereo not drawn) gave Six1-Eya2 inh -8, D2 PAM 10 and TRPV1 PAM -15.
COc1ccc(S(=O)(=O)N(CC(=O)NCC2CCCO2)c2ccccc2)cc1OC (stereo not drawn) was read as Six1-Eya2 inh 22, CtBP-E1A blk 0, D2 PAM -34, TRPML1 blocker 1, TRPV1 PAM -1 and TRPML1 ag -0.2.
O=C(O)COc1cnc2ccccc2n1 was read as Six1-Eya2 inh -1, CtBP-E1A blk -15, D2 PAM -2, TRPML1 blocker -5, TRPV1 PAM -22 and TRPML1 ag -0.5.
Screening Cc1ccccc1C(=O)NCCCn1ccnc1 returned Six1-Eya2 inh 6, CtBP-E1A blk 4, D2 PAM -12, TRPML1 blocker 24, TRPV1 PAM -4 and TRPML1 ag 0.0.
Cc1ccc(S(=O)(=O)N(C)CC(=O)N(C)Cc2cccs2)cc1 was read as Six1-Eya2 inh -1, CtBP-E1A blk 5, D2 PAM -11, TRPML1 blocker -10 and TRPML1 ag -0.8.
`Cc1nnc2c(NCCC(C)C)nc3ccccc3n12` gave Six1-Eya2 inh 4, CtBP-E1A blk 13, D2 PAM -2, TRPML1 blocker 12, TRPV1 PAM -8 and TRPML1 ag -0.9.
Screening CCOC(=S)SCC(=O)N1CCc2ccccc2C1C1C(=O)CCCC1=O (stereo not drawn) returned Six1-Eya2 inh -5, CtBP-E1A blk 0, D2 PAM -6, TRPML1 blocker -1, TRPV1 PAM -1 and TRPML1 ag 2.4.
CCC(C)NC(=O)c1ccc([N+](=O)[O-])c(Cl)c1 (stereo not drawn) was read as Six1-Eya2 inh -1, CtBP-E1A blk 5, D2 PAM -10, TRPML1 blocker 3, TRPV1 PAM -17 and TRPML1 ag -0.2.
Screening Cn1c(NCCN(CCO)CCCc2ccc([N+](=O)[O-])cc2)cc(=O)n(C)c1=O returned Six1-Eya2 inh 5, CtBP-E1A blk 1, D2 PAM -39, TRPML1 blocker -16 and TRPML1 ag -0.5.
`COCCn1c(SCC(=O)NC(C)c2ccc(F)cc2)nc2ccccc21` (stereo not drawn) gave Six1-Eya2 inh -11, CtBP-E1A blk 0, D2 PAM -6, TRPML1 blocker -10, TRPV1 PAM -9 and TRPML1 ag 0.2.
`O=C(NCc1cccs1)C(=O)NCC1OCCCN1S(=O)(=O)c1cc(F)ccc1F` (stereo not drawn) gave Six1-Eya2 inh 3, CtBP-E1A blk 1, D2 PAM 6, TRPML1 blocker 2, TRPV1 PAM 5 and TRPML1 ag -0.5.
`Cn1c(=O)[nH]c(=O)c2c1nc(NCCCn1ccnc1)n2Cc1ccc(F)cc1` gave Six1-Eya2 inh -3, CtBP-E1A blk -4, D2 PAM -11, TRPML1 blocker 7, TRPV1 PAM -8 and TRPML1 ag -0.7.
`CCCNC(=O)c1ccccc1NC(=O)CSCc1ccc(OC)cc1` gave Six1-Eya2 inh 2, CtBP-E1A blk 1, D2 PAM -1, TRPML1 blocker 0, TRPV1 PAM 1 and TRPML1 ag 0.5.
For CCOC(=O)/C=C1\SCC(=O)N1CC(=O)NC(C)C the results were Six1-Eya2 inh -6, CtBP-E1A blk -2, D2 PAM -3, TRPML1 blocker 38, TRPV1 PAM 0 and TRPML1 ag 0.4.
